# Arbovirus inh: arbovirus infection inhibition. inhibition, % at 10 µM. arbovirus infection cell-based antiviral screen. 200,000 compounds, 0.37% hits;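 active = inhibition from about 30%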;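 also: bluetongue infection of BSR cells; cell survival read as ATP light after 72 h; 0% = infected wells without compound and 100% = uninfected wells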
# RecA splice inh: inhibitors of M. tuberculosis RecA intein splicing; cell-free RecA intein splicing, fluorescence; inhibition, %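 (about 9 µM by stock and volumes)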; 290,000 compounds, 0.75% hits; AID 2221; in the data active = inhibition above about 30%; inconclusive = no clear call, values can overlap the other calls;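 also: 0% = vehicle wells and 100% = reference inhibitor control wells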
# Target sequence (P9WHJ3 whole entry, looked up, canonical isoform): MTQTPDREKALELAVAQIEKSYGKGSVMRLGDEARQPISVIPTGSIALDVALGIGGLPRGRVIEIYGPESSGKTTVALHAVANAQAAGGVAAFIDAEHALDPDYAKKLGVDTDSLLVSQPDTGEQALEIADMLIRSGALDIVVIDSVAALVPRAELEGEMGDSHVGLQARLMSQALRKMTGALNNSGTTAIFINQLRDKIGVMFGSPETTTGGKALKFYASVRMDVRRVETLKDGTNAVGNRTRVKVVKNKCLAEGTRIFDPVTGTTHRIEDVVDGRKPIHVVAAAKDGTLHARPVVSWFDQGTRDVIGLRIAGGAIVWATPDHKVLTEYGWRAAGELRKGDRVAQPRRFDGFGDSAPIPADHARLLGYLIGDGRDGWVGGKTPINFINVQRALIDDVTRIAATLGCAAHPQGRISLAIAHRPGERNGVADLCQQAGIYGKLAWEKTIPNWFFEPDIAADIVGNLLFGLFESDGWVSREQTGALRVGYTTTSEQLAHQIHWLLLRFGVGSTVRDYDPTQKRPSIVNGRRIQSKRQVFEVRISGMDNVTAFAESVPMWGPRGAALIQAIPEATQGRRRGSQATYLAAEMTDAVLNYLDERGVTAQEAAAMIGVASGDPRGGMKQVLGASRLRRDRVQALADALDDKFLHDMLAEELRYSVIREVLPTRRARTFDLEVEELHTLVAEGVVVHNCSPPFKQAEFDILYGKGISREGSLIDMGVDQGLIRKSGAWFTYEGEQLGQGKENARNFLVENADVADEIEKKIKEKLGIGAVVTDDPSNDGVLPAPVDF
# Mtb growth: M. tuberculosis H37Rv growth inhibitors, H37Rv strain (AID 1626); M. tuberculosis H37Rv growth inhibition; higher % means a stronger effect; inhibition, % at 10 µM, or IC50 in µM where a hit was titrated; 220,000 compounds, 0.95% hits;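 active = confirmed in a dose series; inconclusive = inhibition above 80% but not taken into the dose series; inactive = below 80% or under 30% at every dose of the series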;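 also: bacteria incubated seven days before Alamar blue readout; 0% = bacteria only wells and 100% = bacteria with antibiotic wells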
# YopH inh: YopH (Yersinia) phosphatase inhibition | fluorescence Ex485/Em525 | AID 898 | 140,000 compounds, 0.16% hits | inhibition, %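 (about 10 µM by stock and volumes)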;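 active = inhibition of 50% or more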;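 also: controls were vehicle for no effect and minimum signal wells for full effect; inactives centre near -20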
# Mtb bLac sens: beta-lactam sensitization of Mtb H37Rv; M. tuberculosis H37Rv growth with meropenem, percent inhibition; hits of this screen are not shown here; inhibition, % at 25 µM; 330,000 compounds, 0.27% hits; AID 434955;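 active = about 74% or more and at least 40 points above the plate without the antibiotic, then above 30% in a dose series; inconclusive = first-round hits that could not be retested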;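 also: growth measured after seven days incubation then overnight dye step; 0% = bacteria only wells and 100% = bacteria with antibiotic; twin plates without the antibiotic show which effects depend on it; some results filed as inactive read as strong as hits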
# The depositor's hits bear a star; ? = inconclusive; / = no result given. Only part of the results is shown; count on the stated rates, not on these rows.
# Screens in order: YopH inh, Mtb growth, Mtb bLac sens, RecA splice inh, Arbovirus inh
[1] COc1ccc(Cc2nnc(SCC(=O)c3cccc([N+](=O)[O-])c3)n2C)cc1
→ -15, 1%, 5, -1.9, -2
[2] O=C(Nc1ccc(Cl)cc1)O/N=C(\c1ccccc1)c1ccccn1
→ -35, -6%, -4, 5.0, -4
[3] Cn1c2ccccc2c2cc(C(=O)N3CCN(CCO)CC3)sc21
→ -8, -6%, -4, 5.7, 11
[4] CCCCOc1ccc(CSCCN=C(N)N)cc1
→ /, 11%, /, 2.4, -25
[5] COc1ccccc1C(=O)Nc1ccc2c(c1)nc(CCNC(=O)c1ccco1)n2C
→ /, /, -1, -2.2, /
[6] Clc1ccccc1CSc1snnc1-c1ccccc1
→ -8, -5%, 1, 12, 5
[7] O=C(c1cc(-c2ccc3c(c2)OCO3)on1)N1CCN(c2ccc(F)cc2)CC1
→ -24, -2%, -1, -0.6, -9
[8] COc1ccc(OC)c(C2C3=C(CCCC3=O)Nc3nnnn32)c1 (centres undefined)
→ -19, 6%, -3, -0.2, -5
[9] Cc1ccc(N(C(=O)Cc2cccs2)C(C(=O)NC2CCCC2)c2ccncc2)cc1 (centres undefined)
→ /, -4%, 3, 1.2, -4
[10] CC(=O)N1c2ccc(S(=O)(=O)N3CCCCC3)cc2CC1C(=O)Nc1ccc(C)cc1 (centres undefined)
→ /, /, 4, -1.6, /
[11] O=C(Cc1c[nH]c2ccccc12)OCCOC(=O)Cc1c[nH]c2ccccc12
→ -4, -6%, 4, 1.5, 1
[12] c1ccc(Cn2cnc3ccccc32)cc1
→ -8, 5%, -2, /, -5
[13] CCN1C[C@@]2(COC)C3[C@@H](OC)[C@H]4[C@@H]1[C@@]3(C1C[C@H]3[C@H](OC(=O)c5ccccc5)C1[C@]4(OC(C)=O)C[C@H]3OC)[C@@H](OC)C[C@H]2O (some centres undefined)
→ /, 5%, -5, -1.1, /
[14] Cc1ccc(C)c(S(=O)(=O)NC(Cc2c[nH]c3ccccc23)C(=O)O)c1 (centres undefined)
→ /, -3%, -1, -0.4, 0
[15] CCN(CC)c1ccc(/C=N/NC(=O)c2c(Cl)c(C)nn2C)cc1
→ -35, -1%, -1, -1.3, -3
[16] Cc1ccc(NCC(=O)N/N=C/c2cc(O)ccc2[N+](=O)[O-])cc1
→ /, 2%, -4, 2.8, 7
[17] CC(c1ccc(F)cc1)n1c(-c2ccc3ccccc3n2)n[nH]c1=S (centres undefined)
→ -8, 5%, 1, 4.9, -7
[18] OC(COC(c1ccc(F)cc1)c1ccc(F)cc1)CN1CCCC(C(F)(F)F)C1 (centres undefined)
→ /, /, 6, -0.7, /
[19] Cc1ccc(NC(=O)c2ccc(OC(F)F)cc2)cc1S(=O)(=O)N(C)C
→ -29, 11%, 4, 3.5, -3
[20] O=C(Oc1ccc(C(=S)N2CCOCC2)cc1Br)c1cc(Cl)ccc1Cl
→ -37, -2%, -1, 20, 8
[21] Brc1ccc2ncnc(Nc3cccc4ccccc34)c2c1
→ -27, -5%, 26, 8.0, -1
[22] O=C(Nc1ccccc1)c1sc(N2CCOCC2)nc1-c1ccccc1
→ -27, /, 6, 0.5, 1
[23] CCn1c2ccccc2c2cc(CN3CCN(C(=O)c4ccco4)CC3)ccc21
→ -40, 15%, 9, 13, -11
[24] CCOC(=O)c1cc2occc2n1CC(=O)NC1CCCCC1C (centres undefined)
→ -20, 9%, 2, -5.0, -6
[25] Cc1ccc2nc(NC(=O)c3ccc(OCC4CCCO4)cc3)sc2c1 (centres undefined)
→ -17, 63%, -1, -0.9, 6
[26] OCCC1CN(Cc2ccon2)CCN1Cc1ccccc1 (centres undefined)
→ /, -7%, -12, 0.4, 5
[27] COc1cc(C(=O)N2CCC(NC(=O)C(Cc3ccccc3)NC(C)=O)CC2)cc(OC)c1OC (centres undefined)
→ -30, 6%, -15, 1.3, 2
[28] O=C(NCC(=O)N(Cc1ccco1)C(C(=O)NC1CCCCC1)c1ccncc1)c1cccs1 (centres undefined)
→ /, -3%, 5, 3.5, /
[29] CCCCN(CCCC)C(=O)C[n+]1cccc(/C=N/O)c1
→ /, 1%, 3, -0.5, 3
[30] C=CCSc1nnc(NC(=O)CSc2ccccn2)s1
→ -32, 1%, -17, /, 1
[31] CCOC(=O)N1CCN(S(=O)(=O)c2ccc(C(=O)N(CCCN(C)C)c3nc4cc(OC)ccc4s3)cc2)CC1
→ /, /, -8, 0.1, /
[32] Cc1ccc(/C=N/NC(=O)CSc2ccccn2)o1
→ /, 5%, -10, -0.2, /
[33] COc1ccc(C(=O)NCCn2ccc3ccccc32)cc1
→ -12, -5%, -1, /, 2
[34] Cc1ccc(NC(=O)c2ccc(NC(=O)c3ccccc3)cc2)cc1C
→ /, /, 10, -5.5, /
[35] COc1cccc(C(=O)Nc2nc(-c3ccc(S(=O)(=O)N4CCOCC4)cc3)cs2)c1
→ -1, 15%, 36, 5.7, 0
[36] c1ccc(-c2cc(-c3ccccc3)ncn2)cc1
→ /, /, -5, 0.7, /
[37] C/C(Cn1cnc([N+](=O)[O-])n1)=N\NC(=O)c1ccncc1
→ -28, ?, 99, 0.4, 1
[38] COc1cc(OC)c(NC(=O)/C=C/C(=O)O)cc1Cl
→ /, 5%, -5, 1.1, /
[39] Cc1c(NC(=O)CN2c3ccccc3CC2C)c(=O)n(-c2ccccc2)n1C (centres undefined)
→ /, 3%, 12, -0.7, 1
[40] CC(=O)Nc1ccc(N2CCCC2)cc1
→ -12, -1%, -4, -6.6, 2

# An excerpt from above in order of molecular weight, rising:
# Screens in order: YopH inh, Mtb growth, Mtb bLac sens, RecA splice inh, Arbovirus inh
[40] CC(=O)Nc1ccc(N2CCCC2)cc1
→ -12, -1%, -4, -6.6, 2
[36] c1ccc(-c2cc(-c3ccccc3)ncn2)cc1
→ /, /, -5, 0.7, /
[32] Cc1ccc(/C=N/NC(=O)CSc2ccccn2)o1
→ /, 5%, -10, -0.2, /
[38] COc1cc(OC)c(NC(=O)/C=C/C(=O)O)cc1Cl
→ /, 5%, -5, 1.1, /
[37] C/C(Cn1cnc([N+](=O)[O-])n1)=N\NC(=O)c1ccncc1
→ -28, ?, 99, 0.4, 1
[29] CCCCN(CCCC)C(=O)C[n+]1cccc(/C=N/O)c1
→ /, 1%, 3, -0.5, 3
[33] COc1ccc(C(=O)NCCn2ccc3ccccc32)cc1
→ -12, -5%, -1, /, 2
[30] C=CCSc1nnc(NC(=O)CSc2ccccn2)s1
→ -32, 1%, -17, /, 1
[24] CCOC(=O)c1cc2occc2n1CC(=O)NC1CCCCC1C (centres undefined)
→ -20, 9%, 2, -5.0, -6
[34] Cc1ccc(NC(=O)c2ccc(NC(=O)c3ccccc3)cc2)cc1C
→ /, /, 10, -5.5, /
[21] Brc1ccc2ncnc(Nc3cccc4ccccc34)c2c1
→ -27, -5%, 26, 8.0, -1
[22] O=C(Nc1ccccc1)c1sc(N2CCOCC2)nc1-c1ccccc1
→ -27, /, 6, 0.5, 1
[25] Cc1ccc2nc(NC(=O)c3ccc(OCC4CCCO4)cc3)sc2c1 (centres undefined)
→ -17, 63%, -1, -0.9, 6
[39] Cc1c(NC(=O)CN2c3ccccc3CC2C)c(=O)n(-c2ccccc2)n1C (centres undefined)
→ /, 3%, 12, -0.7, 1
[19] Cc1ccc(NC(=O)c2ccc(OC(F)F)cc2)cc1S(=O)(=O)N(C)C
→ -29, 11%, 4, 3.5, -3
[23] CCn1c2ccccc2c2cc(CN3CCN(C(=O)c4ccco4)CC3)ccc21
→ -40, 15%, 9, 13, -11
[35] COc1cccc(C(=O)Nc2nc(-c3ccc(S(=O)(=O)N4CCOCC4)cc3)cs2)c1
→ -1, 15%, 36, 5.7, 0
[28] O=C(NCC(=O)N(Cc1ccco1)C(C(=O)NC1CCCCC1)c1ccncc1)c1cccs1 (centres undefined)
→ /, -3%, 5, 3.5, /
[27] COc1cc(C(=O)N2CCC(NC(=O)C(Cc3ccccc3)NC(C)=O)CC2)cc(OC)c1OC (centres undefined)
→ -30, 6%, -15, 1.3, 2
[31] CCOC(=O)N1CCN(S(=O)(=O)c2ccc(C(=O)N(CCCN(C)C)c3nc4cc(OC)ccc4s3)cc2)CC1
→ /, /, -8, 0.1, /

# (cont.)
# Screens in order: YopH inh, Mtb growth, Mtb bLac sens, RecA splice inh, Arbovirus inh
[41] N/C(=N\OCc1ccc([N+](=O)[O-])cc1)c1ccncc1
→ /, 0%, -2, -2.5, -5
[42] O=C1CCC(=O)N1CCSC(=S)N1CCSCC1
→ /, -1%, 0, 0.1, /
[43] Cc1[nH]c2ccccc2c1C(Nc1nccs1)c1ccncc1 (centres undefined)
→ -10, -3%, 42, 0.5, -8
[44] O=S(=O)(Nc1cc(C(F)(F)F)ccc1N1CCOCC1)c1ccccc1
→ /, -3%, -4, 2.2, /
[45] CN(C(=O)c1ccc([N+](=O)[O-])cc1)c1ccccc1C(=O)NCc1ccccc1
→ /, /, -5, 2.0, /
[46] CC(C)CC(OC(=O)c1cccs1)C(=O)NCc1cccs1 (centres undefined)
→ -53, -10%, 15, 4.1, -5
[47] Cc1ccc2c(CN3CC(C)CC(C)C3)cc(=O)oc2c1 (centres undefined)
→ /, /, 1, 2.6, /
[48] COC(=O)CSc1nc(C)cc(C)n1
→ /, -5%, -9, -1.1, 5
[49] CC1CCCC(C)N1/N=C/c1ccc(O)c(O)c1 (centres undefined)
→ /, /, 6, -2.4, /
[50] COc1ccc(N2CCN(c3nc4c(c(=O)n(C)c(=O)n4C)n3Cc3ccccc3)CC2)cc1
→ -38, 28%, 90, 4.1, -4
[51] COc1ccc(C(=O)Nc2ccc(-c3ccc(C)o3)cc2)cc1S(=O)(=O)N1CCOCC1
→ -49, 11%, 1, 0.9, -3
[52] COc1cc2c(cc1OC)CN(C(=O)C1CCCN1S(=O)(=O)c1ccc(C)cc1)CC2 (centres undefined)
→ /, /, 1, 0.7, /
[53] CSc1ccc(CNc2ccc(C)cc2)cc1
→ -18, -6%, -4, 7.4, 5
[54] O=C1CC(NCc2ccc(F)cc2)C(=O)N1c1ccccc1 (centres undefined)
→ /, -1%, -3, 0.4, 3
[55] O=C(Nc1c[nH]c(=O)[nH]c1=O)c1cccc(F)c1
→ /, /, 1, -1.4, /
[56] CCN1C(=O)C(CC(=O)Nc2ccc(F)cc2)N(CCc2ccc(OC)cc2)C1=S (centres undefined)
→ /, -1%, 3, 8.8, -27
[57] Cc1cc(C)n(C(=O)C(C)n2nc([N+](=O)[O-])c(Br)c2C)n1 (centres undefined)
→ -12, -4%, -8, 2.5, -4
[58] CC(=O)c1c(N2CCOCC2)nc(=S)n(Cc2ccccc2)c1C
→ -26, -8%, -11, -0.1, 1
[59] Clc1ccc(-n2cccc2/C=N/n2cnnc2)cc1
→ -6, -6%, 0, -0.6, -6
[60] CCCCc1ccc(NC(=S)N2CCN(c3ccccn3)CC2)cc1
→ /, /, 27, -0.7, /
[61] O=C(Nc1sc2c(c1C(=O)O)CCC2)C(=O)N1CCOCC1
→ /, /, 10, 3.4, /
[62] CCOC(=O)c1c(N)nn(C(=O)C(C)C)c1-c1ccc(OC)cc1
→ -5, -6%, 3, 7.6, 1
[63] Cc1cccc(C(=O)N/N=C/c2ccoc2)c1
→ /, /, -8, -0.4, /
[64] Cc1[nH]oc(=O)c1N=Nc1c(Cl)cccc1Cl
→ -26, 12%, 68, -1.7, 0
[65] CC1=C(C(=O)NCc2ccccc2)C(c2cccnc2)n2ncnc2N1 (centres undefined)
→ -1, -11%, -16, -0.2, -1
[66] COc1ccc(N=Cc2c(O)ccc3ccccc23)cc1
→ /, >100µM*, 17, -8.7, -18
[67] CC(=O)Nc1cnc2ccccc2n1
→ 7, -1%, -7, /, 15
[68] O=C(CCC(=O)N(CC(=O)NC1CCCC1)Cc1ccccc1Cl)Nc1nccs1
→ /, /, 1, 1.4, /
[69] CCOC(=O)N1CCN(C(=O)c2cnn3c(C)c(Cc4ccc(C)cc4)c(C)nc23)CC1
→ -16, /, -7, 1.5, 7
[70] COc1ccccc1OCCSc1nnc(C)n1-c1ccccc1
→ -10, -13%, -2, -2.9, 11
[71] CCOc1cc(CNc2ccc3c(c2)CCC3)ccc1OC
→ -11, 47%, -4, 1.3, 0
[72] Cc1ccc(N2C(=S)NC3c4cc(Cl)ccc4OC2(C)C3C(=O)N(C)C)cc1 (centres undefined)
→ /, 8%, -3, 4.3, 5
[73] COc1cccc(NC(=O)C2CSC3(C)CCC(=O)N23)c1 (centres undefined)
→ /, /, -1, 1.9, /
[74] CC1=N/C(=C\c2ccccc2Cl)C(=O)O1
→ /, /, -5, 1.7, /

# Source: PubChem
